2A StopGo = lowers the luciferase signal of an FMDV 2A StopGo reporter; human cells with a luciferase reporter of 2A StopGo recoding; control for the full effect not named in the record; Potency, µM (titrated, usually from 57.9 µM), inactives show at the top dose signal change, negative = less light; 1.2% of 410,000 active; active = well fitted falling curve with a large enough effect; inconclusive = small, poorly fitted or top-dose-only effect; inactive = no such curve, though single readings can be large or run the other way; tested in HEK293T cells; further: on the % scale 0 is the no-effect control and ±100 the full control effect; nearly all actives have a fitted effect of over 45% in size; luciferase light after 4 h
SARS PLP yeast = SARS-CoV PLP inhibition in yeast; Potency, µM (titrated, usually from 32.9 µM), for inactives: at the top dose activity, positive = growth rescue; AID 485353; S. cerevisiae expressing SARS-CoV PLpro, growth rescue; control for the full effect not named in the record; 0.19% of 330,000 active; active means well fitted rising curve with a large enough effect; inconclusive means small, poorly fitted or top-dose-only effect; inactive means no such curve, though single readings can be large or run the other way; further: 0% is about no effect; nearly all actives have a fitted effect of over 55% in size; growth read by luminescence after 48 h
NS1 inh = blocks influenza NS1 protein function; S. cerevisiae slowed by influenza A NS1, growth recovery by OD600; Potency, µM (titrated, usually from 46.1 µM), for the others: at the top dose activity, positive = more growth; 0.4% of 270,000 active; active means well fitted rising curve with a large enough effect; inconclusive means small, poorly fitted or top-dose-only effect; inactive means no such curve, though single readings can be large or run the other way; further: nearly all actives have a fitted effect of over 50% in size
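Compounds were scored for reversing the slow growth caused by influenza A NS1 in S. cerevisiae, measured by optical density at 600 nm. Assay medium contained 2% galactose at pH 6.0; NS1-free yeast of the same strain were the positive control.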
Lassa entry inh = inhibitors of Lassa virus binding or cell entry; 1.2% of 300,000 active; Lassa virus pseudotype entry inhibition, cell reporter; control for the full effect not named in the record; Potency, µM (titrated, usually from 37.9 µM), for the others: at the top dose activity change, negative = inhibition, most hits filed as inhibitors; active means well fitted inhibition curve with a large enough effect; inconclusive means small, poorly fitted or top-dose-only effect, or effect the other way; inactive means flat fitted curve, though single readings scatter; tested in HEK293 cells; further: on the % scale 0 is the no-effect control and ±100 the full control effect; nearly all actives have a fitted effect of over 50% in size; luciferase read-out
Cruzain noTriton = cruzain (T. cruzi) inhibition without detergent; 2.3% of 200,000 active; purified cruzain, Z-FR-AMC fluorescence, no detergent; P25779; Potency, µM, for the others: max response, negative = inhibition, most hits filed as inhibitors;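 further: plate controls were enzyme without inhibitor for no effect and buffer without enzyme for full effect; nearly all actives have a fitted effect of over 40% in size; top concentration of the series not given in the record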
Target sequence (P25779 123-467 limits assumed): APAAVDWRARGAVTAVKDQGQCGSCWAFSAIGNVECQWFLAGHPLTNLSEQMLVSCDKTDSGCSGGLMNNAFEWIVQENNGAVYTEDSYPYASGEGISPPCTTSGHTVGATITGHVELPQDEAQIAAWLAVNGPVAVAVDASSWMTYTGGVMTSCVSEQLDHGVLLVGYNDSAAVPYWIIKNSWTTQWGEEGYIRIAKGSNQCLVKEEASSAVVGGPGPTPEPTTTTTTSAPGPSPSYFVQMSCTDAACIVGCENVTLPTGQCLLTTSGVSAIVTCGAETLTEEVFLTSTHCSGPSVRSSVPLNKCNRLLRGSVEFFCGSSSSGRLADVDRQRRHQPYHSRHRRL
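Detergent-free condition (0.00005% Triton X-100) in acetate buffer pH 5.5 with DTT. 1.5 nM enzyme and compound were pre-mixed 15 min, then 2 uM Z-FR-AMC substrate added; reaction progress from fluorescence change between first and third reads (60 s).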
RE007 growth inh = less growth of the S. pombe RE007 Vpr strain | S. pombe RE007 Vpr strain, BacTiter-Glo ATP luminescence, 24 h; control for the full effect not named in the record | Potency, µM (highest dose often 92.2 µM), without a hit: at the highest dose activity change, negative = less growth | 0.21% of 360,000 active; active = well fitted falling curve with a large enough effect; inconclusive = small, poorly fitted or top-dose-only effect; inactive = no such curve, though single readings can be large or run the other way;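 further: on the % scale 0 is the no-effect control and ±100 the full control effect; nearly all actives have a fitted effect of over 50% in size; the assay follows cell death caused by Vpr and the record does not say whether a fall means rescue or toxicity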
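Fission yeast RE007 carrying one integrated HIV-1 vpr copy, seeded at OD 0.01 in PMG+AL medium with 23 nL pinned compound. Grown 24 h at 30 degrees; viability read by BacTiter-Glo luminescence after 5 min.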
Cruzain Triton = cruzain (T. cruzi) inhibition with detergent; Potency, µM, for the others: max response, negative = inhibition, actives largely listed as inhibitors; 0.43% of 200,000 active; purified cruzain, Z-FR-AMC fluorescence, 0.01% Triton; P25779;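 further: plate controls were neutral wells for no effect and buffer without enzyme for full effect; nearly all actives have a fitted effect of over 40% in size; top concentration of the series not given in the record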
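Compounds were screened in titration against cruzain (1.5 nM) with 0.01% Triton X-100 to counter colloidal aggregation. Activity was the AMC fluorescence increase over 60 s after adding 2 uM Z-FR-AMC at pH 5.5.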
Marburg entry inh = blocks Marburg virus binding to or entry into cells; Potency, µM (highest dose often 37.8 µM), for inactives: at the highest dose activity change, negative = inhibition, actives largely listed as inhibitors; 1.8% of 300,000 active; Marburg virus pseudotyped entry inhibition, cell reporter; control for the full effect not named in the record; about a third of the inactives were read at about 46 µM; active = well fitted inhibition curve with a large enough effect; inconclusive = small, poorly fitted or top-dose-only effect, or effect the other way; inactive = flat fitted curve, though single readings scatter; tested in HEK293 cells; about a fifth of its hits are not listed in these tables; further: on the % scale 0 is the no-effect control and ±100 the full control effect; luciferase read-out
An asterisk follows results filed as active; u = inconclusive; x = not tested or not shown; [ ] = remark or other dose. Unless noted, the call rests on the fitted dose curve; in most records, active means well fitted curve in the direction sought with a large enough effect; inconclusive means small, poorly fitted or top-dose-only effect, or another doubt; inactive means no such curve, though single readings can be large; an effect the other way counts as inactive or inconclusive. Potency means the concentration at half of the fitted maximal effect. The order is random (roughly 4.5% active in at least one column).

SMILES | 2A StopGo | SARS PLP yeast | NS1 inh | Lassa entry inh | Cruzain noTriton | RE007 growth inh | Cruzain Triton | Marburg entry inh
COc1cc(C(=O)NCC(c2ccc(F)cc2)N2CCOCC2)ccc1OCc1ccccc1Cl (stereo not given) | -27.6% | x | x | u | x | 0.2% | x | u
CC1CCc2cccc3c2N1c1cc(C#N)c(C#N)cc1O3 (stereo not given) | -10.8% | -2.4% | -40.2% | -28.0% | u | -2.7% | -0.6% | -27.1%
Cc1nnsc1Sc1ccccc1 | 4.2% | 0.6% | -0.7% | 7.2%[46.1 µM] | x | 6.4% | x | u
O=C(Cc1cccs1)Nc1nnc(-c2ccncc2)s1 | 66.2%[activator] | -2.8% | 0.5% | u | -14.4% | 1.7% | 5.4% | 9.1%
Cc1nc2ccccc2cc1OCc1ccc(Cl)cc1 | u | -21.2% | -23.1% | 0.1% | -3.4% | -17.8% | -13.7% | u
COc1ccccc1C(=O)N/C(=C\c1cn(S(=O)(=O)N(C)C)c2ccccc12)C(=O)N1CCCC1 | 2.0% | 5.0% | 20.2% | x | x | 13.3% | x | x
Cc1cc(NC(=O)c2c(-c3c(Cl)cccc3Cl)noc2C)n(C)n1 | -0.4% | -0.1% | 3.8% | -25.9% | x | -8.5% | x | -1.0%[46.1 µM]
COc1ccc(NC(=O)CN(C)C(=O)c2ccc3[nH]c4c(c3c2)CC(C)CC4)cc1 (stereo not given) | -24.8% | 0.1% | x | u | x | 4.3% | x | u
Cn1c(=O)n(C)c2cc(NC(=O)COc3ccc(F)cc3F)ccc21 | u | -11.9% | -16.1% | 4.1%[46.1 µM] | x | 3.1% | x | -1.4%[46.1 µM]
Cc1ccc(-c2n[nH]c(=O)c3ccccc23)cc1S(=O)(=O)NCCO | -6.9% | -1.2% | 5.5% | 3.8% | -6.1% | -10.7% | 2.6% | 10.5%
Cc1ccc(NC(=O)Nc2nnc(CSCCOc3ccc(Cl)cc3)s2)cc1 | 0.0% | 12.3% | 10.6% | 5.2% | 7.94µM* | 5.9% | 0.0% | 7.0%
COC(=O)c1c(SC)nc2ccccc2c1OCc1ccc(C)cc1C | -20.5% | x | x | 21.4%[46.1 µM] | -29.8% | x | -0.1% | x
Cc1ccc(SCC(=O)O/N=C(\N)c2ccncc2)cc1 | -1.1% | -7.6% | -43.8% | x | x | -9.7% | x | x
O=C(Nc1nc(-c2cccs2)cs1)c1cccc(S(=O)(=O)N2CCCCC2)c1 | -8.9% | 2.6% | 15.0% | -5.2% | u | -13.0% | -5.3% | u
O=C(ONC1=NCCCCC1)c1ccc(Cl)cc1 | u | -28.9% | -214.9% | u | -0.3% | u | 8.6% | u
CC(C)c1nn2c(=O)cc(COC(=O)CNC(=O)c3ccccc3)nc2s1 | -7.6% | x | x | 24.1%[46.1 µM] | -5.1% | x | -3.4% | x
COc1ccc(C(=O)NCCc2nnc3ccc(SCC(=O)Nc4cc(C)on4)nn23)cc1 | 0.5% | 0.4% | x | 11.4%[46.1 µM] | x | -12.9% | x | -3.0%[46.1 µM]
COCCNC(=O)c1ccc(CN2CCC(Cc3ccccc3)CC2)cc1 | -9.0% | 0.8% | 2.4% | -0.3% | x | -1.9% | x | -3.1%
O=C(Nc1ccc(NC(=O)c2cccs2)cc1)c1ccc(Br)o1 | 6.5% | -0.9% | -4.0% | -13.8% | 25.1µM* | -3.2% | 5.4% | -0.3%
COc1cc(/C=C(/NC(=O)c2ccccc2)C(=O)N2CCN(C)CC2)c([N+](=O)[O-])cc1OC | 7.1% | -7.7% | 1.6% | 8.7% | -1.3% | -6.4% | -8.5% | 36.5%
CCN(CC)c1nc(N2CCOCC2)c(C#N)c2c1CN(C)CC2 | 0.0% | 1.8% | -4.2% | 2.1% | 1.7% | 14.0% | -0.3% | 4.4%
NNC(=O)c1ccc(CN2C(=O)c3cccc4cccc2c34)cc1 | 23.2% | -0.1% | 3.1% | x | x | 3.1% | x | x
Cc1ccc2[nH]c3c(=O)n(CCc4cnc[nH]4)cnc3c2c1 | 48.4%[activator] | -4.0% | -3.3% | 25.1% | -4.6% | -17.7% | 0.3% | 20.9%
OCCC#Cc1ccc(CN2CCN(Cc3ccccc3)C(CCO)C2)cc1 (stereo not given) | 6.4% | -0.1% | -6.9% | 1.6%[46.1 µM] | x | -13.0% | x | u
CCCSc1ccc(-c2nn(-c3ccccc3)cc2/C=C(/C#N)C(=O)NCCCOC)cc1 | -11.5% | -0.2% | 7.8% | 21.9% | 16.8% | 45.8% | -6.6% | -3.8%
CC(=O)c1cccc(S(=O)(=O)N2CCCC(c3nc(-c4ccc(C)o4)no3)C2)c1 (stereo not given) | 3.6% | 1.8% | -4.2% | -24.9% | u | 16.6% | -3.0% | 21.9%
COc1ccc(CNC(=O)COC(=O)c2cccn2C)cc1 | 64.1%[activator] | 3.0% | x | u | x | 3.5% | x | u
CN(CCC#N)C(=S)NC(=O)c1ccc(S(=O)(=O)N2CCOCC2)cc1 | -16.5% | -0.3% | x | 8.3% | x | -8.5% | x | 26.1%[46.1 µM]
COc1ccc2[nH]cc(S(=O)(=O)c3ccc(F)cc3)c(=O)c2c1 | 0.0% | -0.5% | 10.1% | x | -6.8% | -4.0% | 1.9% | x
O=C(CCC(=O)NC1CCN(Cc2ccccc2)CC1)NCc1ccco1 | -20.1% | -3.0% | -7.9% | 2.9% | -4.7% | 4.1% | 3.4% | 17.4%
CCC(C)NC(=O)COC(=O)c1csc2c1CCCC2 (stereo not given) | 3.55µM* | -31.3% | -6.7% | x | 1.5% | 1.9% | 7.0% | x
Cc1ccc(S(=O)(=O)c2cccc(S(=O)(=O)N3CCOCC3)c2)cc1S(=O)(=O)N1CCOCC1 | -11.1% | -9.8% | 3.5% | 7.3% | u | -2.2% | 3.5% | 0.7%
O=C(CCCC(=O)N/N=C/c1ccccc1C(=O)O)N/N=C/c1ccccc1C(=O)O | -1.2% | 0.5% | 8.6% | x | x | -5.2% | x | x
COc1ccc(/C(O)=C2\C(=O)C(=O)N(Cc3ccco3)C2c2ccc(OC)cc2OC)cc1 (stereo not given) | 8.2% | 3.0% | 19.0% | 19.7% | 10.4% | -13.4% | -2.5% | 13.3%
COc1ccc(CCn2c(=O)c3cccnc3n(CC(=O)Nc3c(C)cccc3C)c2=O)cc1OC | -8.1% | x | x | x | 4.6% | x | 0.2% | 7.7%[46.1 µM]
CCc1nc(Nc2ccc(OC)c(OC)c2)c2nnn(Cc3ccccc3Cl)c2n1 | 25.1µM* | 17.8µM* | 2.9% | u | u | -5.8% | -10.9% | u
Cc1cccc(NC(=O)c2cccs2)n1 | 43.7%[activator] | -8.3% | -15.0% | u | 1.8% | -19.6% | 0.4% | 1.5%
Cc1nc2cc(N3CCN(C)CC3)c(NC(=O)Cc3ccccc3)cc2c(=O)n1Cc1ccccc1 | u | 4.3% | -0.6% | u | -3.0% | -6.4% | 4.9% | u
CCOc1ccccc1C(=O)NCC(=O)N(C)Cc1ccccc1C | -16.4% | 1.0% | -13.9% | x | x | 8.8% | x | x
CCCc1nnc(NC(=O)C2CCN(C(=O)c3ccco3)CC2)s1 | -6.7% | -1.3% | 5.1% | 25.2% | x | 79.7% | x | -2.0%[46.1 µM]

Rewritten tab-delimited: entries from further up
Structure	2A StopGo	SARS PLP yeast	NS1 inh	Lassa entry inh	Cruzain noTriton	RE007 growth inh	Cruzain Triton	Marburg entry inh
Cc1ccc(SCC(=O)O/N=C(\N)c2ccncc2)cc1	-1.1%	-7.6%	-43.8%	x	x	-9.7%	x	x
COc1ccc(CNC(=O)COC(=O)c2cccn2C)cc1	64.1%[activator]	3.0%	x	u	x	3.5%	x	u

Continuation.
SMILES | 2A StopGo | SARS PLP yeast | NS1 inh | Lassa entry inh | Cruzain noTriton | RE007 growth inh | Cruzain Triton | Marburg entry inh
CCOC(=O)N1CCN(CC(O)COCCC23CC4CC(CC(C4)C2)C3)CC1 (stereo not given) | u | -10.6% | -20.5% | -18.4% | -3.4% | 12.2% | 0.6% | u
CCOc1ccc(OCC)c(NC(=O)CCc2c(C)nc3c(c2C)c(=O)n(C)c(=O)n3C)c1 | u | x | x | 10.8%[46.1 µM] | 7.0% | x | 1.1% | -10.2%[46.1 µM]
CC(=O)Nc1ccc(S(=O)(=O)N=S(C)(C)=O)cc1 | -2.6% | 2.3% | 14.5% | u | 11.3% | 13.9% | -2.8% | 3.4%
Cc1ccc(CCNC(=O)c2ccc(CS(=O)(=O)c3ccccc3C)o2)cc1 | -26.7% | u | -6.8% | x | x | 3.5% | x | x
CCOC(=O)C1=C(CC)Nc2ccccc2N/C1=N\S(=O)(=O)c1cc(Br)ccc1Br | u | -20.9% | x | -21.0% | x | 2.6% | x | 3.5%[46.1 µM]
COc1ccc(-c2nn(-c3ccccc3)cc2/C=N/Nc2ccccn2)cc1OC | -7.0% | -6.3% | 13.0% | u | 18.4% | u | -11.3% | 13µM*
c1csc(CNCCN2CCOCC2)c1 | 5.2% | -3.6% | u | -12.5% | 7.4% | -1.4% | 5.6% | 3.7%
O=C(c1ccc(C(F)(F)F)cc1)C1CCCN(C(=O)Cn2cncn2)C1 (stereo not given) | -22.9% | -1.0% | 4.8% | u | x | -17.3% | x | 10.3%
NC(=O)C1(N2CCCCC2)CCN(S(=O)(=O)c2cc(Cl)sc2Cl)CC1 | -15.2% | 0.4% | -3.0% | 11.4%[46.1 µM] | x | -8.1% | x | 11.9%[46.1 µM]
COC(=O)c1c(-c2ccc(F)cc2)csc1NC(=O)C1CCCO1 (stereo not given) | 0.7% | -1.5% | -33.5% | -3.6% | x | 13.4% | x | u
Brc1ccccc1/C=N/N1CCCCC1 | 26.9% | 4.7% | 11.9% | -1.2% | x | -13.3% | x | u
Cc1c(CN2CCN(CC(C)(C)C)C(CCO)C2)[nH]c2ccccc12 (stereo not given) | -6.7% | -1.4% | -3.7% | x | x | -6.5% | x | x
COc1ccc2cc1Oc1ccc(cc1)C[C@H]1c3c(cc4c(c3Oc3cc5c(cc3OC)CCN(C)[C@@H]5C2)OCO4)CCN1C | u | 3.5% | -2.8% | x | u | 1.3% | -20.9% | x

Assay outcomes (PubChem BioAssay)
